MLL AF4-AF9 inh: inhibitors of human MLL-AF4/AF9 interaction; AID 651704; hit rate 0.47% among 350,000; P42568; inhibition, % at 10 µM; AlphaScreen, biotin-AF4 peptide binding to FLAG-AF9;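 active = every replicate reaching a set inhibition limit, whatever the replicate mean, cut at about 25% in these data; inconclusive = mean inhibition reaches that limit but some replicates miss it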;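 note: 0% = plate neutral control median and 100% = total signal loss; the record names both 10 and 1 µM as test concentration; the first replicate is given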
Target sequence (P42568 whole entry, looked up): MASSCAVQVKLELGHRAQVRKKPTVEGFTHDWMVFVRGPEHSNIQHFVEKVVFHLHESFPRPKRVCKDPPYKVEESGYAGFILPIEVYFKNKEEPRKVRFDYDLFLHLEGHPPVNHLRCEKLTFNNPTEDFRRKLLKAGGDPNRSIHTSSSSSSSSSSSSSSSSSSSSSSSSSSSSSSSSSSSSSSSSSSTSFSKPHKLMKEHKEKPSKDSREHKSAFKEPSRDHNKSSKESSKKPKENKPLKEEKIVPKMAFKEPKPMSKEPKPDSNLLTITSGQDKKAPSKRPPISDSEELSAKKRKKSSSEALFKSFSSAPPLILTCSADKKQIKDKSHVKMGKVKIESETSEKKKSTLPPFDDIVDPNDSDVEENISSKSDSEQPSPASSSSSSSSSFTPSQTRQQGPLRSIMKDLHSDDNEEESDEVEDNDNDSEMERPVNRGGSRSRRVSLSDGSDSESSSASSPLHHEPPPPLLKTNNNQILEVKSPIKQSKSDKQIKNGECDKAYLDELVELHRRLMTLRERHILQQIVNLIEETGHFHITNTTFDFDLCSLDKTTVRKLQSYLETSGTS
Calb FLC: C. albicans growth modulation with fluconazole. C. albicans CaCi-2 (fluconazole-resistant clinical isolate) + fluconazole, Alamar Blue growth, 48 h. growth inhibition, % (concentration not given with the values). hit rate 0.57% among 300,000. AID 1979;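 active = most replicates above 75%; inconclusive = exactly half above 75%; inactive = most below 75%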;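 note: all wells also contain fluconazole at 8 µg/ml as a sub-toxic cotreatment; 0% = median of DMSO wells and 100% = median of geldanamycin control wells; wells of about 8 µL received 7.5 nL stock; the first replicate is given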
T cruzi inh: blocks replication of Trypanosoma cruzi; hit rate 1.4% among 300,000; inhibition, % (concentration not given with the values); AID 1885; T. cruzi beta-gal in NIH3T3, luminescence, 90 h;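 active = mean inhibition across valid replicates above about 55%, limit read from the data; inconclusive = mean below that limit but half or more replicates reach it; inactive = mean below it, under half of replicates reach it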;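 note: signal also drops with host cell toxicity which is not excluded here; 0% = plate median of DMSO wells and 100% = zero luminescence signal; higher percent means less beta-gal luminescence so fewer parasites; stock transfer was 50 nL into about 50 µL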
RanGTP-Impb inh: inhibitors of RanGTP-importin-beta interaction, primary screen, biochemical, FRET, CFP-Ran, YFP-importin-beta, homogeneous | cell-free CFP-Ran/YFP-importin-beta FRET ratio | inhibition, % (no concentration beside the values) | hit rate 1.1% among 300,000 | AID 2216;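 active = most replicates above 15%; inconclusive = exactly half above 15%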;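 note: 0% = DMSO wells and 100% = Ran loaded with GDP instead of GTP; wells of about 40 µL received 100 nL stock; the first replicate is given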
Vif A3G: HIV-1 Vif–A3G interaction blockers – biochemical, TR-FRET, GST-Vif 1-94, biotin-A3G peptide, dose response retest, primary screen (AID 1117319). TR-FRET GST-Vif / biotin-A3G peptide binding; higher % means a stronger effect; test concentration not given here; strong numbers were not always called active. one-dose inhibition, %; IC50 in µM for titrated hits. hit rate 0.57% among 260,000;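 active = above the screen mean plus three standard deviations and confirmed in dose response; inconclusive = results disagree or hit not tested in dose response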;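 note: Vif residues 1-94 fused to GST binding biotinylated APOBEC3G peptide 110-148; 0% = full assay without inhibitor and 100% = GST in place of GST-Vif; retest series ran down from 100 µM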
Bfl-1 A1 inh: inhibitors of the anti-apoptotic protein A1, read as caspase activation; hit rate 0.066% among 330,000; caspase activation, % (test concentration not listed); MEF A1-2A-BIM cells, Caspase-Glo 3/7 luminescence, 3 h; percent of clofoctol response, vehicle zero; AID 2462;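 active = over half of replicate activation scores above 10%, or exactly half above 10 with the replicate mean above 10; inconclusive = replicate mean below 10 yet half the replicates above 10; inactive = over half of replicates below 10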;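 note: wells of about 30 µL received 50 nL stock; many hits fall short of the cut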
Beta apoptosis: beta cell apoptosis inhibition; protection from apoptosis, % (test concentration not listed); hit rate 0.8% among 300,000; INS-1E cytokine-induced death, ATP luminescence, 48 h; percent of positive-control rescue, neutral wells zero; AID 435005;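 active = all replicates at 75% or more, or half of them and the mean; inconclusive = half reach 75% but not the mean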;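 note: 0% = cytokine-treated negative control wells and 100% = positive control rescue; higher means more ATP so stronger rescue from cytokine killing; wells of about 40 µL received 100 nL stock; the first replicate is given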
rRNA inh HTS: inhibitors of bacterial rRNA selective over humanized ribosomes; E. coli WT GFP vs humanized-ribosome RFP mutants, fluorescence, 24 h; hits give low values; DMSO median 0, no signal -100; GFP signal change (wild-type ribosome), % (concentration not given with the values); hit rate 1.6% among 350,000;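 active = significant combined selectivity score with lowered wild-type GFP, culture density cut under 30%, mutant RFP and density less affected; inactive = any of these conditions unmet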; note: one replicate is shown; some compounds called inactive have numbers as strong as hits
rRNA inh HTS OD600: also measured in rRNA inh HTS; calls as there; OD600 change, %; measured here: OD600 growth;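 optical density of the mix in the first replicate; 0 = DMSO median and -100 = no signal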
rRNA inh HTS RFP: second read-out of rRNA inh HTS, no call of its own (marks repeat the call); RFP signal change, %; measured here: RFP humanized mutant strains;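 first replicate; 0 = DMSO median and -100 = no signal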
* hit, by the source's call; u = inconclusive; x = no result given; & = joins results of further samples.

SMILES	MLL AF4-AF9 inh	Calb FLC	T cruzi inh	RanGTP-Impb inh	Vif A3G	Bfl-1 A1 inh	Beta apoptosis	rRNA inh HTS	rRNA inh HTS OD600	rRNA inh HTS RFP
Cc1cccc2cc(-c3nc4c(C)cccn4c3NCc3ccco3)c(=O)[nH]c12	x	-4	4	-1.1	0%	-0.4	1	x	x	x
CCCCn1c(SCC(=O)Nc2cc(C)on2)nnc1-c1ccncc1	-2.6	-5	-3	1.4	x	-0.1	-4	3	1	-2.5
CCOC(=O)C1=C(COC(=O)CCc2ccc(CC)cc2)NC(=O)NC1C (stereo unspecified)	2.4	x	x	x	x	0.0	3	-7	4	6.5
Cc1ccc(NC(=O)CCNS(=O)(=O)c2ccc(Br)s2)cc1	1.0	32	-8	1.4	x	0.2	-1	4	-19	3.6
CSc1ccccc1NC(=O)CN(c1cccc(C)c1)S(C)(=O)=O	-32	5	-6	-0.7	18%	0.6	-3	-20*	-6.7*	1.2*
CCCCn1c(N)c(N(CC(C)C)C(=O)COC(=O)Cc2c(C)nc3ccccc3c2C)c(=O)[nH]c1=O	-3.1	1	2	-2.1	2%	0.3	-2	9	-3	3.4
Cc1ccc(C(CC(=O)NCc2ccco2)c2ccccc2)c(O)c1 (stereo unspecified)	6.7	38	-15	3.8	52%	0.3	-2	-28	-30	-9.7
CC(C)N(Cc1ccccc1)C(=O)COC(=O)c1ccc(S(=O)(=O)N2CCOCC2)cc1	5.3	x	x	x	-3%	0.3	-1	-2	5	-5.2
CCCCCCN1CC(=O)N2Cc3[nH]c4ccccc4c3C[C@H]2C1=O	4.4	8	-5	-0.4	-1%	-0.6	-4	-3	0	6.5
COc1ccc(OC)c(Nc2ccc(Nc3cc(OC)ccc3OC)nn2)c1	20	-1	21	0.4	2%	0.6	2	x	x	x
Cc1nn(-c2cc(C)c3ccccc3n2)c2c1C1C(C2)C1(C)C (stereo unspecified)	x	-7	-16	-2.0	0%	0.0	4	x	x	x
CSc1nc(=O)n2cccc(C)c2n1	x	-8	-7	1.3	26%	0.1	-3	x	x	x
C/C(=N/OC(=O)c1ccc(C)cc1)c1cccs1	x	3	-12	2.0	-5%	-1.0	-12	x	x	x
CCCOc1ccc(C(=O)Nc2cccnc2)cc1	-18	-3	-5	-0.4	3%	-4.7	x	-12	-12	-2.4
Cc1nn(-c2ccccc2)c(-c2ccccc2[N+](=O)[O-])c1C(=O)O	-3.7	-1	-8	0.2	-4%	0.1	-5	-7	-5	-4.1
Cc1c(Cl)cccc1NC(=O)CC1Sc2ccccc2NC1=O (stereo unspecified)	-1.7	-2	-8	8.6	-1%	1.3	6	13	21	-1.0
NC(=O)CSc1ccc(Br)cc1	x	-7	-34	2.0	3%	0.9	-9	x	x	x
CN(C)CCOCCP(=O)(c1ccccc1)c1ccccc1	x	-17	3	4.8	-4%	-1.1	-7	x	x	x
CC(=O)N1CCN=C1SCc1ccc(Cl)cc1	1.3	-4	-3	0.5	-5%	0.5	-5	3	5	-0.6
Cn1c(=O)c2c(nc(NCCNC(=O)c3ccco3)n2Cc2ccccc2Cl)n(C)c1=O	x	16	2	-2.0	13%	0.1	2	x	x	x
CCOc1cccc(/C=N/Nc2ccc(S(=O)(=O)N(CC)CC)cn2)c1O	-0.9	26	8	1.5	3%	-0.6	117*	x	x	x
CCCCCCCCCCOC(=O)Cn1c(COc2cccc(C)c2)[n+](C)c2ccccc21	13	49	58*	5.8	x	-0.5	99*	-48	-73	-8.9
Cc1ccc(NC(=O)COC(=O)c2sccc2C)cc1S(=O)(=O)N1CCOCC1	-23	19	3	1.2	11%	0.6	-14	-14	-27	-2.0
Cc1ccc(NC(=S)NCC2CCN(C(C)c3ccccc3)C2)cc1 (stereo unspecified)	1.0	-9	40	-2.8	2%	0.6	-5	10	-1	-0.6
CCCn1c(SCC(=O)Nc2nc3ccccc3s2)nc2c1c(=O)n(C)c(=O)n2C	x	-5	5	4.9	-5%	-0.3	-9	x	x	x
COc1ccc2cc(CCNC(=O)C3CC3)c(=O)[nH]c2c1	x	-3	-15	1.6	14%	u	-2	x	x	x
Cc1ccc(NC(=O)C(C)Sc2nnc(C)n2C2CC2)cc1S(=O)(=O)N1CCOCC1 (stereo unspecified)	1.5	x	x	x	x	0.5	u	7	5	1.6
COCCNC(=S)N1CCN(c2nc(-c3cccc(OC)c3)cs2)CC1	7.8	2	-10	u	3%	-0.2	-11	-6	-17	5.1
Cn1c(SCc2cccc(C(F)(F)F)c2)nnc1-c1ccco1	x	0	4	1.6	-1%	0.4	-7	x	x	x
COc1ccc(Cn2c3ccc(OC)cc3c3nc4ccccc4nc32)cc1	x	0	-2	3.7	x	0.3	-2	x	x	x
NC(=O)c1nsc(C(=O)N(Cc2ccc(F)cc2)C(C(=O)NCC2CCCO2)c2ccc(O)cc2)c1N (stereo unspecified)	2.9	3	-4	0.9	x	x	x	-5	-6	2.8
O=C(Nc1ccc(Cl)c(Cl)c1)N(Cc1cccnc1)Cc1ccco1	x	11	56*	1.2	-3%	0.2	6	-47	-74	-14
CN1CCN(C(=O)CN(CCc2ccccc2)S(C)(=O)=O)CC1	x	17	6	2.2	-2%	-0.1	x	x	x	x
COc1ccc(NC(=O)C2CCCN(S(=O)(=O)c3cccc4cccnc34)C2)c(OC)c1 (stereo unspecified)	0.6	-1	-10	5.1	3%&-1%	-0.7	8	-21	-28	-2.2
CC(C)CN(C(=O)CSc1nnc2ccccn12)c1c(N)n(CC(C)C)c(=O)[nH]c1=O	x	10	5	1.8	2%	-0.2	-3	x	x	x
COc1ccc(-c2cc(C(F)(F)F)nc(-n3ccnc3)n2)cc1	3.8	7	9	-1.5	-3%	-0.8	3	4	3	3.8
O=C(CSc1nnc(NCc2ccccc2)s1)N1CCOCC1	x	6	-1	4.6	6%	-1.2	0	x	x	x
CCN(C(=O)COC(=O)c1cc(-c2ccccc2)nc2ccc(Br)cc12)C1CCS(=O)(=O)C1 (stereo unspecified)	-0.4	8	9	-2.2	-87%	-0.1	x	1	5	-3.7
Cc1ccc(NC(=O)CNC2CCCCC2)cc1Cl	-5.3	3	5	-0.6	19%	-0.2	-6	8	8	-0.4
COc1ccc(NC(=O)c2cccnc2Sc2ccccc2)c(OC)c1	3.7	60	-4	-1.4	18%	-0.4	1	15	10	-0.5
NS(=O)(=O)c1ccc(CCNC(=O)C2COc3ccccc3O2)cc1 (stereo unspecified)	2.4	-5	5	-2.5	x	1.2	x	-5	0	-2.4
O=C(COC(=O)c1ccc(O)cc1)Nc1ccc(N2CCCCC2)cc1	x	-4	-6	6.1	-3%	-0.6	2	x	x	x
COc1ccc(C(c2nnnn2Cc2ccc(F)cc2)N2CCN(c3ccc(OC)cc3)CC2)cc1 (stereo unspecified)	x	-3	33	-1.1	6%&-4%	2.2	-1	x	x	x
CCOc1ccc(N/C=C\C(=O)c2ccc3c(c2)OCO3)cc1	0.5	2	-1	u	17%	-1.6	-7	-6	-1	4.5
Cc1cccc(NC(=O)Nc2c(C)n(C)n(-c3ccccc3)c2=O)c1C	-1.3	2	16	-0.6	-5%	0.6	-3	6	12	0.5
CCCS(=O)(=O)N1CCC(C(=O)NCCC(C)C)CC1	0.1	-48	-35	5.7	-2%	1.8	2	7	-2	-0.1
COc1ccccc1CNC(=O)CN1C(=O)NC2(CCCc3sccc32)C1=O (stereo unspecified)	-4.3	x	x	x	-5%	0.0	-6	-3	1	-2.3
COc1cc([N+](=O)[O-])ccc1N=Nc1c(N)[nH]n(-c2ccccc2)c1=O	0.5	33	-4	u	u	-1.9	-6	14	15	2.1
FC(F)(F)c1cnc(Oc2ccccc2-c2nnco2)c(Cl)c1	x	-4	-23	3.5	-4%	-0.2	3	-1	5	-2.9
Cc1cc(N(CN2CCCC2=O)C(=O)c2ccccc2)no1	x	0	-7	-2.6	-1%	1.2	-6	x	x	x
O=C(CCC(=O)N1CCN(Cc2ccc(F)cc2)CC1)Nc1nnc(C(F)(F)F)s1	0.8	x	19	-2.7	x	0.7	5	-1	-5	1.9
CC1(C(=O)N2CCC(CO)(Cc3cccc(C(F)(F)F)c3)CC2)CC1	0.1	4	-6	1.2	x	-0.9	x	-10	-13	2.5
Cc1ccccc1-c1nn(-c2ccc(F)cc2F)cc1CNCC(C)O (stereo unspecified)	0.3	-4	-35	1.9	12%	0.0	-4	13	2	1.2
COc1ccccc1NC(=O)CCNC(=O)Cn1ccc2ccccc2c1=O	x	12	-21	3.9	-6%	0.1	0	4	4	-4.2
O=C(NCc1ccccc1)c1cccc(F)c1F	-2.1	-11	-11	2.0	4%	0.2	-2	1	2	-2.1
Cc1cc2nc(=O)c(/C=C3\C=Nc4ccccc43)c(N)n2o1	-3.6	-1	25	47*	31%	-0.4	-1	13	20	4.8
CCCCC(=O)Nc1cc(OCC)c(NC(=S)NC)cc1OCC	-1.9	9	7	0.1	x	0.4	-2	15	14	1.5
C/C(CC(=O)Nc1ccc(N(C)C)cc1)=N\NC(=O)c1ccc(C(C)(C)C)cc1	6.7	4	0	2.3	7%	-0.5	-3	-9	-1	-3.1
CCCCc1nnc(SC(C)C(=O)Nc2nccs2)n1C (stereo unspecified)	-0.2	7	-15	-0.7	x	0.7	-4	0	4	1.9
Cc1ccc(C(=O)NCCN2CCOCC2)c(Cl)c1	1.5	3	-14	4.1	2%	0.5	-8	0	8	-0.4
Further records.
SMILES	MLL AF4-AF9 inh	Calb FLC	T cruzi inh	RanGTP-Impb inh	Vif A3G	Bfl-1 A1 inh	Beta apoptosis	rRNA inh HTS	rRNA inh HTS OD600	rRNA inh HTS RFP
COc1ccc(CCNC(=O)C2CCN(S(=O)(=O)c3ccc(SC)cc3)CC2)cc1	0.9	23	-6	7.1	x	-0.5	1	1	-2	3.1
COc1cc(/C=C2/NC(=O)N(CC(=O)Nc3ccc(C)cc3)C2=O)ccc1Oc1ccc([N+](=O)[O-])cn1	-1.4	9	3	4.4	u	1.4	-4	5	0	-5.1
CC1(C)COCN1C(=O)c1ccc(C#N)cc1	0.3	5	-5	-2.6	1%	u	-5	11	7	0.1
CCOC(=O)Cc1csc(NC(=O)CCc2ccccc2)n1	-0.5	-48	5	-0.1	x	-0.4	0	-9	-10	-2.2
C[C@H]1CN([C@@H](C)CO)C(=O)c2cc(NC(=O)C3CCCCC3)ccc2O[C@H]1CN(C)C(=O)Nc1ccc2c(c1)OCO2	-3.8	x	x	x	x	0.2	-3	-2	-3	1.5
N#C/C(=C(O)\C=C\c1ccccc1)c1nc2ccccc2[nH]1	-2.7	31	-15	-3.1	6%	0.2	4	11	-5	-1.7

Compound activity as filed in PubChem.

These rows are one share of the data, so the mix of outcomes need not match the whole.
